Source: PubChem (several laboratories)
RN4220 kill: growth inhibition of S. aureus RN4220, primary screen, OD600; 16 h; inhibition, % (concentration not given with the values); hit rate 0.33% among 330,000; AID 1259311, 2017;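 active = z-score of -3 or lower and OD600 up to 0.18 on both plates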;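 also: plate controls were untreated cells for no effect and reference antibiotic for full effect; stock transfer was 100 nL into about 80 µL; one replicate is shown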
Mtb hypoxia rep: PubChem AID 1159583 | M. tuberculosis hypoxia-regulated fluorescent reporter, fluorescence | fluorescence inhibition, % (no concentration beside the values) | hit rate 0.1% among 300,000;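 active = 35 to 45% if threefold the growth effect, above 45% if 1.5-fold the growth effect; inactive = the rest, general growth blockers included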;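 also: wells of about 50 µL received 100 nL stock; 0% = vehicle wells and 100% = reference inhibitor wells; whole bacteria with a GFP reporter of the hypoxia response; strong numbers were not always called active; many hits fall short of the cut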
PrP 5UTR inh: inhibition of PrP 5' UTR reporter expression. cell-based PrP 5' UTR mRNA reporter, plate reader. inhibition, % (no concentration beside the values). hit rate 0.35% among 340,000;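 active = every replicate at 50% or more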;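 also: 0 = median of the neutral control wells; tested in H4 reporter cells; numbers are from one replicate; inactives centre near -14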
BJeLR viability: MLPCN primary cell-based screen for lethality selective to Ras in HRASV12 cells; BJeLR (HRASV12) viability, CellTiter-Glo ATP luminescence, 48 h; reference of the scale not given here; inhibition, % (no concentration beside the values); hit rate 0.17% among 300,000; AID 1554, 2009;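 active = replicate mean above 50%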;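 also: 50 nL library stock added to about 25 µL; numbers are from one replicate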
ugtP null kill: growth inhibition of ugtP-null S. aureus, primary screen, RN4220 ugtP deletion, OD600; 16 h; some inactives read as strong as hits; growth inhibition, % (test concentration not listed); hit rate 0.54% among 330,000;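 active = z-score under -3 and OD600 up to 0.15 on both plates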;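 also: plate controls were untreated wells for no effect and antibiotic for full effect; wells of about 80 µL received 100 nL stock; the first replicate is given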
Bead autofluor: compound fluorescence in toxin protease inhibitor counterscreen; compound autofluorescence counterscreen, microsphere flow cytometry; active compounds read high; fluorescence intensity (concentration not given with the values); hit rate 3.1% among 360,000; AID 624483;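 active = at least 3 SD above the mean of all compounds, about 16000 in these data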;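 also: 100 nL of 1 mM stock went into each well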
Mtb hypoxia rep growth: further read-out of Mtb hypoxia rep, marked with its call; growth inhibition, %; measured here: M. tuberculosis growth (absorbance);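 0% = vehicle and 100% = reference antibiotic; read after six days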
The depositor's hits bear a star.

What do the screens show for `CCOC(=O)CC(NS(=O)(=O)c1ccc(OC)c(OC)c1)c1cccc([N+](=O)[O-])c1` (centres undefined)?
RN4220 kill: 2.9; Mtb hypoxia rep: 0; PrP 5UTR inh: 2; BJeLR viability: 8; ugtP null kill: 5; Bead autofluor: 2531; Mtb hypoxia rep growth: 18

Results for CC(C)c1ccc(C(=O)NCCCN2CCN(CCCNC(=O)c3ccc(C(C)C)cc3)CC2)cc1 ?
RN4220 kill: 2.2; Mtb hypoxia rep: 15; PrP 5UTR inh: -29; BJeLR viability: 6; ugtP null kill: 5; Bead autofluor: 3014; Mtb hypoxia rep growth: 7

How did O=C1CCN=C(Nc2ccc(F)cc2)N1Cc1ccccc1 do in these assays?
RN4220 kill: -3.1; Mtb hypoxia rep: -88; PrP 5UTR inh: -21; BJeLR viability: -2; ugtP null kill: -6; Bead autofluor: 4321; Mtb hypoxia rep growth: -5

Results for O=S(=O)(/N=C(/Nc1cccc2ccccc12)c1ccccc1)c1ccc(Br)cc1 ?
RN4220 kill: -4.1; Mtb hypoxia rep: 3; PrP 5UTR inh: -20; BJeLR viability: -1; ugtP null kill: -3; Bead autofluor: 5510; Mtb hypoxia rep growth: 2

How did CC(C(=O)NC1CC1)c1ncc(C(F)(F)F)cc1Cl (centres undefined) do in these assays?
RN4220 kill: 1.5; Mtb hypoxia rep: 5; PrP 5UTR inh: -16; BJeLR viability: -2; ugtP null kill: 2; Bead autofluor: 4164; Mtb hypoxia rep growth: 5

How did NC(=O)c1ccsc1NC(=O)COC(=O)[C@@H]1CCCN1C(=O)c1cccs1 do in these assays?
RN4220 kill: 1.8; Mtb hypoxia rep: 10; PrP 5UTR inh: 5; ugtP null kill: 1; Bead autofluor: 3949; Mtb hypoxia rep growth: 2

What do the screens show for `O=[N+]([O-])c1ccc(CNCc2cc(Cl)ccc2O)cc1`?
RN4220 kill: 5.4; Mtb hypoxia rep: 18; PrP 5UTR inh: -13; ugtP null kill: 6; Bead autofluor: 3011; Mtb hypoxia rep growth: 7

Results for Cc1cccc(OCC(=O)Nc2ccc(N3CCCC3)cc2)c1C ?
RN4220 kill: 4.4; Mtb hypoxia rep: -4; PrP 5UTR inh: -23; BJeLR viability: 5; ugtP null kill: -11; Bead autofluor: 7456; Mtb hypoxia rep growth: 4

What do the screens show for `CC(c1ccon1)N(C)C(=O)CCc1nnc(C2(c3ccc(Cl)cc3)CCC2)o1` (centres undefined)?
RN4220 kill: 8.1; Mtb hypoxia rep: 2; PrP 5UTR inh: -7; BJeLR viability: 6; ugtP null kill: 17; Bead autofluor: 3251; Mtb hypoxia rep growth: 6

Results for O=C(CN1C(=O)c2cccc3cccc(c23)C1=O)N1CCN(Cc2ccc3c(c2)OCO3)CC1 ?
RN4220 kill: 0.0; Mtb hypoxia rep: 5; PrP 5UTR inh: -4; BJeLR viability: 4; ugtP null kill: -26; Bead autofluor: 15360; Mtb hypoxia rep growth: 4

Results for CCN(C(=O)CCS(=O)(=O)c1ccc(Br)cc1)c1ccc2c(c1)OCO2 ?
RN4220 kill: 4.4; PrP 5UTR inh: -15; ugtP null kill: 0; Bead autofluor: 5493

How did COc1ccc(-n2c(SCCC(=O)O)nnc2-c2ccncc2)cc1 do in these assays?
RN4220 kill: -1.5; PrP 5UTR inh: -4; BJeLR viability: -1; ugtP null kill: 2; Bead autofluor: 4802

Results for CCNC(=O)COc1cccc(C(=O)NCc2ccccc2)c1 ?
RN4220 kill: 4.1; Mtb hypoxia rep: 16; PrP 5UTR inh: -30; BJeLR viability: -11; ugtP null kill: 8; Bead autofluor: 2634; Mtb hypoxia rep growth: 2

Results for Cc1ccc(C(C(=O)NC2CCCC2)N(C(=O)Cc2cccs2)c2ccc3c(c2)OCCO3)cc1 (centres undefined) ?
RN4220 kill: -13; Mtb hypoxia rep: 0; PrP 5UTR inh: -23; BJeLR viability: 4; ugtP null kill: -9; Bead autofluor: 5429; Mtb hypoxia rep growth: -2

Results for CC1=C(C)CC(C(=O)NCCc2ccccc2)C(C(=O)O)C1 (centres undefined) ?
RN4220 kill: 4.1; Mtb hypoxia rep: 2; PrP 5UTR inh: -19; BJeLR viability: -8; ugtP null kill: 6; Bead autofluor: 23755*; Mtb hypoxia rep growth: 5

How did O=C(Nc1ccccc1N1CCCC1)c1cc(=O)[nH]c2ccccc12 do in these assays?
RN4220 kill: 3.2; Mtb hypoxia rep: 7; PrP 5UTR inh: -14; ugtP null kill: 9; Mtb hypoxia rep growth: 6

What do the screens show for `CCCN(CC(=O)Nc1ccc(NC(C)=O)cc1)CC(=O)Nc1ccc(F)c(F)c1F`?
RN4220 kill: 2.1; Mtb hypoxia rep: -11; PrP 5UTR inh: -7; BJeLR viability: -4; ugtP null kill: 10; Bead autofluor: 5006; Mtb hypoxia rep growth: 2

What do the screens show for `CCOc1ccc(N2C(=O)CC(n3nc(C)cc3C)C2=O)cc1` (centres undefined)?
RN4220 kill: 15; Mtb hypoxia rep: -3; PrP 5UTR inh: -17; BJeLR viability: 7; ugtP null kill: -2; Bead autofluor: 2973; Mtb hypoxia rep growth: 9

Results for COc1cc(/C=N/Nc2nncn2/N=C/c2ccc(O)c(OC)c2)ccc1O ?
PrP 5UTR inh: -6; BJeLR viability: 29; Bead autofluor: 2602

How did C=CCC(NC(C)c1ccccc1)c1ccco1 (centres undefined) do in these assays?
RN4220 kill: 2.6; Mtb hypoxia rep: -2; PrP 5UTR inh: -1; BJeLR viability: 7; ugtP null kill: 6; Bead autofluor: 16630*; Mtb hypoxia rep growth: -10

The closing two compounds of the section before lead into the next.
Results for COc1cc(/C=N/Nc2nncn2/N=C/c2ccc(O)c(OC)c2)ccc1O ?
PrP 5UTR inh: -6; BJeLR viability: 29; Bead autofluor: 2602

How did C=CCC(NC(C)c1ccccc1)c1ccco1 (centres undefined) do in these assays?
RN4220 kill: 2.6; Mtb hypoxia rep: -2; PrP 5UTR inh: -1; BJeLR viability: 7; ugtP null kill: 6; Bead autofluor: 16630*; Mtb hypoxia rep growth: -10

Results for COc1ccccc1CN1CC(C(=O)N2CCC(C(=O)c3ccccc3)CC2)CCC1=O (centres undefined) ?
RN4220 kill: 2.7; Mtb hypoxia rep: 3; PrP 5UTR inh: -25; BJeLR viability: -1; ugtP null kill: 6; Bead autofluor: 5776; Mtb hypoxia rep growth: 2

Results for Cc1nn(-c2ccccc2)c(N2CCCC2)c1C=NNC(=O)c1cc2ccccc2cc1O ?
RN4220 kill: -4.7; Mtb hypoxia rep: 5; ugtP null kill: 28; Mtb hypoxia rep growth: 10

Results for CCc1ccc(S(=O)(=O)N2CCN(C(=O)c3cccnc3)CC2)cc1 ?
RN4220 kill: 3.8; Mtb hypoxia rep: 19; PrP 5UTR inh: -45; BJeLR viability: -8; ugtP null kill: 2; Bead autofluor: 4224; Mtb hypoxia rep growth: 3

Results for COc1cccc(CNCc2ccccc2Br)c1OC ?
RN4220 kill: 6.3; Mtb hypoxia rep: 7; PrP 5UTR inh: -7; BJeLR viability: -1; ugtP null kill: 10; Bead autofluor: 4212; Mtb hypoxia rep growth: 2

How did O=C(c1nc2ccccn2c1CNCC1OCCc2ccccc21)N1CCOCC1 (centres undefined) do in these assays?
RN4220 kill: 6.7; Mtb hypoxia rep: 8; PrP 5UTR inh: -39; BJeLR viability: 20; ugtP null kill: 5; Bead autofluor: 3433; Mtb hypoxia rep growth: 9

How did COc1ccc(F)c(CN2CCCC(CNS(=O)(=O)c3cccc4cccnc34)C2)c1 (centres undefined) do in these assays?
RN4220 kill: 2.5; Mtb hypoxia rep: 5; PrP 5UTR inh: -10; BJeLR viability: 2; ugtP null kill: 1; Bead autofluor: 10714; Mtb hypoxia rep growth: -1

What do the screens show for `CC(=O)c1ccccc1OCCOc1ccccc1C(C)=O`?
RN4220 kill: 0.8; Mtb hypoxia rep: 24; PrP 5UTR inh: -19; BJeLR viability: -5; ugtP null kill: 1; Bead autofluor: 3449; Mtb hypoxia rep growth: 8

How did CC(=O)N1CC(C)Sc2ccc(S(=O)(=O)N3CCCCC3)cc21 (centres undefined) do in these assays?
RN4220 kill: 3.8; Mtb hypoxia rep: 7; PrP 5UTR inh: 1; BJeLR viability: 2; ugtP null kill: 4; Bead autofluor: 4342; Mtb hypoxia rep growth: -6

What do the screens show for `CC(Sc1nnc(Cn2c(=O)sc3ccccc32)n1C)c1ccccc1` (centres undefined)?
RN4220 kill: 2.8; PrP 5UTR inh: -22; BJeLR viability: 1; ugtP null kill: 11; Bead autofluor: 5373

What do the screens show for `O=C(Nc1ccccc1C(=O)NCc1ccccc1)c1ccccc1Br`?
PrP 5UTR inh: -10; BJeLR viability: 1; Bead autofluor: 10030

How did CC(C)CC1=NN(C(=O)c2ccncc2)C(O)(C(F)(F)F)C1 (centres undefined) do in these assays?
RN4220 kill: 4.6; Mtb hypoxia rep: -8; PrP 5UTR inh: -14; BJeLR viability: 19; ugtP null kill: 2; Bead autofluor: 9775; Mtb hypoxia rep growth: -1

Results for CC(C)N1CCN(Cc2ccc(-c3ccccc3)cc2)CC1CCO (centres undefined) ?
RN4220 kill: 3.1; Mtb hypoxia rep: 0; PrP 5UTR inh: -22; BJeLR viability: -11; ugtP null kill: 8; Bead autofluor: 4357; Mtb hypoxia rep growth: 0

Results for COc1ccc(N(C=O)C(C(=O)Nc2c(C)cccc2C)c2ccccc2)cc1 (centres undefined) ?
RN4220 kill: -0.3; Mtb hypoxia rep: -2; PrP 5UTR inh: -19; BJeLR viability: 0; ugtP null kill: 6; Bead autofluor: 6163; Mtb hypoxia rep growth: 6

How did COc1ccc(C2=NOC(C(=O)Nc3ccc4c(c3)OCO4)C2)cc1 (centres undefined) do in these assays?
RN4220 kill: -5.9; Mtb hypoxia rep: 4; PrP 5UTR inh: -9; BJeLR viability: 8; ugtP null kill: 3; Bead autofluor: 3709; Mtb hypoxia rep growth: 1

What do the screens show for `O=C(O)C1=C[C@H](c2ccc(C(F)(F)F)cc2)C[C@H](OCc2ccc(CO)cc2)O1`?
PrP 5UTR inh: -7; BJeLR viability: -8; Bead autofluor: 3575

How did CN(CC(=O)NC1CCCCCCC1)S(=O)(=O)c1cccc2cccnc12 do in these assays?
RN4220 kill: 1.6; PrP 5UTR inh: -37; BJeLR viability: 1; ugtP null kill: 2; Bead autofluor: 5401

Results for COC(=O)/C=C(\Oc1ccccc1)C1(O)CCCCC1 ?
RN4220 kill: 8.4; Mtb hypoxia rep: 14; PrP 5UTR inh: -15; BJeLR viability: -7; ugtP null kill: 6; Bead autofluor: 4510; Mtb hypoxia rep growth: -2

How did CC(C)CCN1CCN(Cc2cccn2-c2ccc(Cl)cn2)CC1CCO (centres undefined) do in these assays?
RN4220 kill: 1.2; Mtb hypoxia rep: 7; PrP 5UTR inh: -19; BJeLR viability: 9; ugtP null kill: 3; Bead autofluor: 4931; Mtb hypoxia rep growth: 6

Of the compounds above, 6 have fluorine:
How did O=C1CCN=C(Nc2ccc(F)cc2)N1Cc1ccccc1 do in these assays?
RN4220 kill: -3.1; Mtb hypoxia rep: -88; PrP 5UTR inh: -21; BJeLR viability: -2; ugtP null kill: -6; Bead autofluor: 4321; Mtb hypoxia rep growth: -5

How did CC(C(=O)NC1CC1)c1ncc(C(F)(F)F)cc1Cl (centres undefined) do in these assays?
RN4220 kill: 1.5; Mtb hypoxia rep: 5; PrP 5UTR inh: -16; BJeLR viability: -2; ugtP null kill: 2; Bead autofluor: 4164; Mtb hypoxia rep growth: 5

What do the screens show for `CCCN(CC(=O)Nc1ccc(NC(C)=O)cc1)CC(=O)Nc1ccc(F)c(F)c1F`?
RN4220 kill: 2.1; Mtb hypoxia rep: -11; PrP 5UTR inh: -7; BJeLR viability: -4; ugtP null kill: 10; Bead autofluor: 5006; Mtb hypoxia rep growth: 2

How did COc1ccc(F)c(CN2CCCC(CNS(=O)(=O)c3cccc4cccnc34)C2)c1 (centres undefined) do in these assays?
RN4220 kill: 2.5; Mtb hypoxia rep: 5; PrP 5UTR inh: -10; BJeLR viability: 2; ugtP null kill: 1; Bead autofluor: 10714; Mtb hypoxia rep growth: -1

How did CC(C)CC1=NN(C(=O)c2ccncc2)C(O)(C(F)(F)F)C1 (centres undefined) do in these assays?
RN4220 kill: 4.6; Mtb hypoxia rep: -8; PrP 5UTR inh: -14; BJeLR viability: 19; ugtP null kill: 2; Bead autofluor: 9775; Mtb hypoxia rep growth: -1

What do the screens show for `O=C(O)C1=C[C@H](c2ccc(C(F)(F)F)cc2)C[C@H](OCc2ccc(CO)cc2)O1`?
PrP 5UTR inh: -7; BJeLR viability: -8; Bead autofluor: 3575
